From PubChem
gsp agonist: activates gsp, the McCune-Albright syndrome mutation; gsp mutant cells, cAMP HTRF, 30 min; control for the full effect not named in the record; Potency, µM (series often up to 76.9 µM), for the others: at the highest dose activation (cAMP increase), most hits filed as activators; 340,000 tested, 0.13% active; AID 624287; active = well fitted activation curve with a large enough effect; inconclusive = small, poorly fitted or top-dose-only effect, or another doubt; inactive = no such curve, though single readings can be large or run the other way; cell line not stated here;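 further: phosphodiesterase inhibitor Ro 20-1724 added with compounds to block cAMP breakdown; potency means the concentration at half of the fitted maximal effect; nearly all actives have a fitted effect of over 60% in size; about a fifth of the inactives were tested at one dose only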
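Cells stably selected in G418 were plated at 2000/well, grown 16-24 hr, then given compounds in DMSO with the PDE inhibitor […] (300 uM solution added) for 30 min at 37C; cAMP was read by HTRF.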
gsp antagonist: antagonists of gsp mutant (McCune-Albright syndrome); Potency, µM (titrated, usually from 76.9 µM), for inactives: at the top dose activity change, negative = inhibition, usual class: inhibitors; AID 624288; gsp-mutant cells, cAMP HTRF, 30 min; control for the full effect not named in the record; 340,000 tested, 0.4% active; active = falling curve of any shape with a large fitted effect; inconclusive = falling curve, mostly with a smaller effect; inactive = flat or rising curve; cell line not stated here;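 further: intracellular cAMP measured with PDE inhibitor Ro 20-1724 present during compound exposure; potency means the concentration at half of the fitted maximal effect; on the % scale 0 is the no-effect control and ±100 the full control effect; nearly all actives have a fitted effect of over 65% in size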
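Measurement of cellular cAMP by homogeneous time-resolved fluorescence following a 30 min compound exposure at 37C. The PDE inhibitor […] was present throughout; the assay buffer was DPBS with 0.05% BSA and 0.005% Tween 20.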
TRPV1 PAM: potentiators of human vanilloid receptor 1 (TRPV1). TRPV1-expressing cells, Fluo-8 calcium influx, capsaicin EC20 potentiation; host cell line not named in the record; control for the full effect not named in the record. Q8NER1. potentiation, % at 8.33 µM. 320,000 tested, 0.02% active; active means potentiation above 80%; inconclusive means 30% to 80%; inactive means below 30%; further: 0% is about no effect
Target sequence (Q8NER1 whole entry, looked up): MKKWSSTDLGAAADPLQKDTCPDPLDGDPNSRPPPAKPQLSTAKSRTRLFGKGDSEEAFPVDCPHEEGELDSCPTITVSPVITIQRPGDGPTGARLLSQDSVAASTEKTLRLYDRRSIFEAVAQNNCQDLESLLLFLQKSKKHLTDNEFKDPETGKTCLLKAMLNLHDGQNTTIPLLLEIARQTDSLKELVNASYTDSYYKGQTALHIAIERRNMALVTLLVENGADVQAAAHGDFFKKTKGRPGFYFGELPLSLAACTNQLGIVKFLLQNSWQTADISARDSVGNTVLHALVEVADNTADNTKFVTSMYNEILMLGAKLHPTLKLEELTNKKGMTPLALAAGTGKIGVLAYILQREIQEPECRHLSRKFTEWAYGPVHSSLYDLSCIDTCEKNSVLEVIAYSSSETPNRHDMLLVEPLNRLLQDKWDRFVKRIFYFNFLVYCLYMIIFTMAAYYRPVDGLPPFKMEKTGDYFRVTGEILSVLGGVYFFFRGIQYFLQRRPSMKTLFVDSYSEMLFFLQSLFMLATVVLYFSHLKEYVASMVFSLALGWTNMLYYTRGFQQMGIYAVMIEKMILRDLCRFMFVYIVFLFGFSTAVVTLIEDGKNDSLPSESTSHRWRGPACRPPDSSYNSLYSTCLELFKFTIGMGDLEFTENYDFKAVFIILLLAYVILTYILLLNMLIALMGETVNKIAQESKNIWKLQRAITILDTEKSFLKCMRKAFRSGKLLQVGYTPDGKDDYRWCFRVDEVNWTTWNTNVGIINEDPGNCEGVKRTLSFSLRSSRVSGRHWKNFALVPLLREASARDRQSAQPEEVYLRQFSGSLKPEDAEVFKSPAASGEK
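Fluo-8 calcium influx in TRPV1-expressing cells, kinetic read (ex 480/em 520 nm). Compound added and read 3 min for agonist activity, followed by capsaicin at EC20 final and 2 min further read for enhancement.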
TRPML1 blocker: human mucolipin-1 channel inhibition; TRPML1-inducible cells, Ca2+ dye fluorescence, FDSS; hits give low values; inhibition of EC80 agonist-evoked calcium signal; activity change, negative = inhibition, % (test concentration not listed); 390,000 tested, 0.02% active; AID 624415; in the data active means activity change below about -50%; inconclusive means about -30% to -50%; inactive means above about -30%;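 further: stimulus is agonist 54-4 at its EC80 concentration; on the % scale 0 is the no-effect control and ±100 the full control effect; compound concentration not given in the record; the text of the record puts the active cut at -80%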
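Tet-induced TRPML1-DL cells loaded with Ca8 no-wash calcium dye were read kinetically on FDSS. Compound addition was followed by EC80 agonist 54-4 (4 uM final); inhibition was read over 110 s.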
Menin-MLL FL inh: displaces fluorescein MLL peptide from human menin. AID 1766. FP activity change, % at 61.4 µM. Fluorescence polarization, fluorescein-MLL peptide displacement from menin. 290,000 tested, under 10 active; inconclusive = falling polarisation curve, or a change in total fluorescence; inactive = total fluorescence flat and polarisation flat or rising; no compound was filed as active; the % refers to the polarisation; negative = inhibition;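 further: % of control where 0% means no effect; inhibitors lower the polarisation; unlabelled MLL peptide was the positive control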
ClpP mod: qHTS Assay for Activators of ClpP | purified B. subtilis ClpP, FRET peptide cleavage, 20 min | AID 651965, 2013 | Potency, µM (series often up to 57.5 µM), for the others: top-dose activity change, negative = active | 340,000 tested, 1.9% active | ATP-dependent Clp protease proteolytic subunit (Bacillus subtilis (strain 168)), P80244; active = well fitted falling curve with a large enough effect; inconclusive = small, poorly fitted or top-dose-only effect; inactive = no such curve, though single readings can be large or run the other way; further: potency means the concentration at half of the fitted maximal effect; the source files actives as falling curves though it sought activators and does not explain the sign; nearly all actives have a fitted effect of over 65% in size; many hits overshoot -100%
Target sequence (P80244 whole entry, looked up): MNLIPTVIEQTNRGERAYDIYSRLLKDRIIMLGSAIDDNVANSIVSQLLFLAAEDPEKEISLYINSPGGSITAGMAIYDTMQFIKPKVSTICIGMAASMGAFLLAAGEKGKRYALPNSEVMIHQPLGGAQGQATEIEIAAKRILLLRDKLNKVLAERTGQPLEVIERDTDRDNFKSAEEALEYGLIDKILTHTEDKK
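Purified B. subtilis ClpP, 10 microg/mL final in Tris/HCl pH8 with KCl, BSA, glycerol and Tween-20, cleaved an Abz/nitrotyrosine-quenched decapeptide. Fluorescence (ex 320, em 430) was read at 0 and 20 min at room temperature. Delta was normalized to 5.8 microM ADEP and DMSO/no-enzyme controls.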
Sfp PPTase inh: blocks B. subtilis Sfp PPTase activity. Potency, µM, for the others: max response, negative = inhibition, usual class: inhibitors. Biochemical Sfp PPTase activity, qHTS. Q9F4F7. AID 1490. 310,000 tested, 3.5% active; active means well fitted inhibition curve with a large enough effect; inconclusive means small, poorly fitted or top-dose-only effect, or another doubt; inactive means no such curve, though single readings can be large or run the other way;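 further: the enzyme is Sfp with the accession as filed and its product quenches rhodamine fluorescence; potency means the concentration at half of the fitted maximal effect; 0% = enzyme reaction without inhibitor and -100% = no enzyme wells; top concentration of the series not given in the record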
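Reaction rates are the 30-min fluorescence difference (ex 525, em 598 nm) in wells containing 15 nM Sfp, 5 uM rhodamine-CoA and 12.5 uM BHQ-2-YbbR at pH 7.6 with 10 mM MgCl2.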
Numbers without * were called inactive; [ ] = remark or other dose.

CC(=O)Nc1cccc(NC(=O)C2CCCN2C(=O)Nc2ccc(Cl)cc2)c1 (configuration not stated) was read as gsp agonist 1%, gsp antagonist 1%, TRPV1 PAM 5, TRPML1 blocker 11, Menin-MLL FL inh 0.9, ClpP mod 0.2% and Sfp PPTase inh 11%.
Screening CC(C)CN(C(=O)COC(=O)c1cncc(Br)c1)c1c(N)n(Cc2ccccc2)c(=O)[nH]c1=O returned gsp agonist inconclusive, gsp antagonist 3%, TRPV1 PAM -2, TRPML1 blocker -16, Menin-MLL FL inh 9.4, ClpP mod -3.6% and Sfp PPTase inh 3%.
For COc1ccccc1NC(=O)CSc1nnc(COc2ccc(Cl)cc2)o1 the results were gsp agonist -3%[15.4 µM], gsp antagonist -4%, TRPV1 PAM 6, TRPML1 blocker -9, ClpP mod 1.5% and Sfp PPTase inh 8%.
Screening O=C(c1ccccc1)c1ccc2nc(-c3ccc(NC(=O)c4ccccc4Br)cc3)[nH]c2c1 returned gsp agonist -12%, gsp antagonist -5%, TRPV1 PAM -16, TRPML1 blocker 1, Menin-MLL FL inh -3.5, ClpP mod inconclusive and Sfp PPTase inh 37%[activator].
Screening COc1cc(CC2C(=O)Nc3ccccc32)cc(C)c1O (configuration not stated) returned gsp agonist 2%[15.4 µM], gsp antagonist 4%, TRPV1 PAM 16, TRPML1 blocker -12, Menin-MLL FL inh 7.4 and Sfp PPTase inh 7%.
`O=C(Cc1cccc(NC(=O)C2CCN(C(=O)c3ccccc3)CC2)c1)Nc1cccc(C(=O)N2CCOCC2)c1` gave gsp antagonist 11%, TRPML1 blocker 7 and ClpP mod 3.4%.
For COc1ccc(CNCc2ccc3c(c2)OCO3)cc1Br the results were gsp agonist 7%, gsp antagonist -4%, TRPV1 PAM 2, TRPML1 blocker -10, Menin-MLL FL inh 0.5, ClpP mod 1.1% and Sfp PPTase inh 6%.
Screening O=C(Nc1ccc(NS(=O)(=O)c2ccccc2)cc1)c1ccccc1Cl returned gsp agonist 1%[15.4 µM], gsp antagonist inconclusive, TRPML1 blocker 5 and ClpP mod -1.1%.
COCC(=O)Nc1ccc(C(C)C)cc1 was read as gsp agonist 7%, gsp antagonist 5%, TRPV1 PAM -31, TRPML1 blocker -8, Menin-MLL FL inh 3.8, ClpP mod -1.8% and Sfp PPTase inh 18%.
Screening COCCOC(=O)C1=C(C)NC2=C(C(=O)CC(C)(C)C2)C1c1ccc(N(C)C)cc1 (configuration not stated) returned gsp agonist 11%, gsp antagonist -1%, TRPV1 PAM 3, TRPML1 blocker 22, Menin-MLL FL inh 2.4, ClpP mod 0.7% and Sfp PPTase inh 12%.
`CC(C)CC(=O)N1CCN(S(=O)(=O)c2ccc3ccccc3c2)CC1` gave gsp agonist 4%, gsp antagonist -25%, TRPV1 PAM -19, TRPML1 blocker -8, Menin-MLL FL inh -0.1, ClpP mod -3.3% and Sfp PPTase inh 3%.
`COc1cc(CN(C(=S)NCC(=O)NC2CCCC2)C2CCCC2)cc(OC)c1OC` gave gsp agonist 28%, gsp antagonist -14%, TRPV1 PAM 6, TRPML1 blocker -4, Menin-MLL FL inh 1.0, ClpP mod -0.7% and Sfp PPTase inh 11%.
NC1=NC[C@H](Cc2ccccc2)N1CCc1cccc(F)c1 was read as gsp agonist 4%, gsp antagonist 14%, TRPV1 PAM 19, TRPML1 blocker 13, Menin-MLL FL inh 0.0, ClpP mod -0.4% and Sfp PPTase inh 16%.
For O=C(CCSc1nc2ccccc2o1)N1CCOCC1 the results were gsp agonist -31%[inhibitor], gsp antagonist -4%, TRPV1 PAM 9, TRPML1 blocker -15, Menin-MLL FL inh 8.1, ClpP mod 1.4% and Sfp PPTase inh -5%.
For O=C(/C=C/c1ccco1)Nc1ccc2c(c1)OCO2 the results were gsp agonist -1%, gsp antagonist 3%, TRPV1 PAM -27, TRPML1 blocker -26, Menin-MLL FL inh 5.8, ClpP mod 0.2% and Sfp PPTase inh 40µM*.
CCCCCC1CCC(c2ccc(C(N)=O)cc2)CC1 (configuration not stated) was read as gsp agonist 6%, gsp antagonist 14%, TRPV1 PAM -9, TRPML1 blocker 7, Menin-MLL FL inh 3.8, ClpP mod -2.8% and Sfp PPTase inh 14%.
For Cc1ccc[n+](CC(=O)c2ccc(Cl)cc2)c1 the results were gsp agonist 17%[15.4 µM], gsp antagonist -1%, TRPV1 PAM -9, TRPML1 blocker -7, Menin-MLL FL inh -0.6, ClpP mod 1.1% and Sfp PPTase inh 17%.
For Cc1ccc(CNC(=O)CCn2c(=O)oc3ccccc32)cc1 the results were gsp agonist inconclusive, gsp antagonist 3%, TRPV1 PAM 21, Menin-MLL FL inh 0.6, ClpP mod -0.6% and Sfp PPTase inh 9%.
O=C(Nc1cccc(Cl)c1)N(CCN1CCOCC1)Cc1cccc(Cl)c1 was read as gsp agonist 2%, gsp antagonist inconclusive, TRPV1 PAM -10, TRPML1 blocker -2, Menin-MLL FL inh 2.9, ClpP mod -2.3% and Sfp PPTase inh inconclusive.
CC1Cc2ccccc2N1C(=O)c1cnc2n(c1=O)CCS2 (configuration not stated) was read as gsp agonist -71%[inhibitor], gsp antagonist 8%, TRPV1 PAM -34, TRPML1 blocker -4, Menin-MLL FL inh 2.8, ClpP mod -4.1% and Sfp PPTase inh -3%.
For O=S(=O)(c1ccc(Cl)cc1)N(Cc1ccccn1)Cc1ccccn1 the results were gsp agonist 0%[15.4 µM], gsp antagonist -2%, TRPV1 PAM 8, TRPML1 blocker 29, Menin-MLL FL inh 0.2, ClpP mod -0.6% and Sfp PPTase inh -6%.
Screening CCOc1ccccc1N1CCN(C(=O)C2=CC=CN3CCS(=O)(=O)N=C23)CC1 returned gsp agonist -34%[inhibitor], gsp antagonist 3%, TRPV1 PAM -15, TRPML1 blocker -12 and ClpP mod -2.3%.
Screening CCOc1ccc(NC(=O)CN2C(=O)NC3(CCCC3)C2=O)cc1S(=O)(=O)N1CCCCC1 returned gsp agonist -15%, gsp antagonist 7%, TRPV1 PAM 9, TRPML1 blocker 15 and ClpP mod -2.8%.
Screening O=C(Nc1ccnn1C1CCN(C2CCC2)CC1)c1cccc(F)c1 returned gsp agonist -70%[inhibitor], gsp antagonist 20%, TRPV1 PAM -11, TRPML1 blocker 49, ClpP mod -1.2% and Sfp PPTase inh 0%.
For COC(=O)C(NC(C)=O)(Nc1cccc(C)n1)C(F)(F)F (configuration not stated) the results were gsp agonist 1%[15.4 µM], gsp antagonist 14%, TRPML1 blocker 2, Menin-MLL FL inh 3.1 and Sfp PPTase inh 18%.
Screening CCOC(=O)CNc1nc(Cl)nc(Nc2ccc(OC)cc2OC)n1 returned gsp agonist inconclusive, gsp antagonist -8%, TRPV1 PAM -4, TRPML1 blocker 1, Menin-MLL FL inh 0.5, ClpP mod 1.9% and Sfp PPTase inh 11%.
Screening O=C1C=C(Nc2cccc3cccnc23)c2ccccc2C1=O returned gsp agonist 7%, gsp antagonist 6%, TRPV1 PAM 7, TRPML1 blocker 13, Menin-MLL FL inh inconclusive and Sfp PPTase inh -25%.
`CC1CN(S(=O)(=O)c2ccc(C(=O)Nc3ccc(S(=O)(=O)Nc4nccs4)cc3)cc2)CC(C)O1` (configuration not stated) gave gsp agonist 8%, gsp antagonist 9%, TRPV1 PAM 6, TRPML1 blocker -6, Menin-MLL FL inh -0.4, ClpP mod 1.4% and Sfp PPTase inh 21%.
`CSc1nc(=O)[nH]nc1Sc1ccccc1` gave gsp agonist -18%, TRPML1 blocker -5 and ClpP mod 0.3%.
CC(=O)c1c(C)[nH]c(C(=O)CSc2nc3ccc(C)cc3[nH]2)c1C was read as gsp agonist 24%, gsp antagonist -7%, TRPV1 PAM -21, TRPML1 blocker -10, Menin-MLL FL inh -3.6, ClpP mod -8.7% and Sfp PPTase inh -28%.
`COc1ccc2cc(-c3ccccc3F)ncc2c1` gave gsp antagonist -10%, TRPV1 PAM 21, TRPML1 blocker 28 and ClpP mod 3.6%.
`COc1ccc(/C=C(/C(=O)NCc2ccccc2)c2ccccc2)cc1` gave gsp agonist 10%, gsp antagonist inconclusive, TRPV1 PAM -1, TRPML1 blocker 20, Menin-MLL FL inh 7.4, ClpP mod -2.8% and Sfp PPTase inh -12%.
`CC12CCC=CC1C(c1ccc3ccccc3c1Br)N(Cc1ccccc1)C2=O` (configuration not stated) gave TRPML1 blocker 67, Menin-MLL FL inh -0.4 and Sfp PPTase inh inconclusive.
CC[N+](CC)(CCO)CCCN1C(=O)C2CC=C(Cl)CC2C1=O (configuration not stated) was read as gsp agonist inconclusive, gsp antagonist 2%, TRPV1 PAM 2, TRPML1 blocker 17, Menin-MLL FL inh -1.2, ClpP mod -4.1% and Sfp PPTase inh -12%.
For O=C(O)C1CCCCC1C(=O)Nc1ccccc1Nc1ccccc1 (configuration not stated) the results were gsp agonist 7%, gsp antagonist -7%, TRPV1 PAM 6, TRPML1 blocker -12, Menin-MLL FL inh 1.9, ClpP mod 25µM* and Sfp PPTase inh 0%.
Screening Cc1nn(-c2ccccc2)c(C)c1NC(=O)COc1cc(F)ccc1[N+](=O)[O-] returned gsp agonist 14%, gsp antagonist inconclusive, TRPML1 blocker 0 and ClpP mod -1.7%.
Cc1cccc(NC(=O)c2cc(-c3ccco3)nc3ccccc23)n1 was read as gsp agonist -6%, gsp antagonist -10%, TRPV1 PAM -2, TRPML1 blocker -1, Menin-MLL FL inh -0.3, ClpP mod 22µM* and Sfp PPTase inh 22µM*.
For CN(C)CCCNC(=O)COc1ccc(Br)cc1Cl the results were gsp agonist 7%, gsp antagonist 12%, TRPV1 PAM -6, TRPML1 blocker 5, Menin-MLL FL inh 7.9, ClpP mod -2.3% and Sfp PPTase inh 9%.
CCOc1ccc2oc(C(=O)OCC(=O)NCC3CCCO3)c(C)c2c1 (configuration not stated) was read as gsp agonist -4%[15.4 µM], gsp antagonist 4%, TRPV1 PAM inconclusive, TRPML1 blocker -21 and ClpP mod -0.5%.
For CCOC(=O)C(=O)Nc1sc(C(=O)N2CCOCC2)c(C)c1C#N the results were gsp agonist -19%[15.4 µM], gsp antagonist 5%, TRPV1 PAM -13, TRPML1 blocker -5, Menin-MLL FL inh 1.8 and Sfp PPTase inh 4%.
Cc1ccc(S(=O)(=O)NCc2ccccc2)cc1C(=O)NCc1ccncc1 was read as gsp agonist -83%[inhibitor], TRPML1 blocker 16 and ClpP mod 2.6%.

Random draw from the library (roughly 4.9% active in at least one column).
